From PubChem BioAssay
HNF4A DNA FP = change in binding of human HNF4 alpha to DNA; P41235; activity change, % at 10 µM; 360,000 compounds, 0.3% hits; HNF4a-FITC DNA binding, fluorescence polarization, 1 h; AID 1224865; in the data active means activity change above about 30%, passing the limit was not always enough;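 further: controls were the assay level and a saturating level of protein; the project sought stronger binding though the title names inhibitors; some compounds called inactive have numbers as strong as hits; positive values seem to mean higher polarization but the record does not say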
Target sequence (P41235 whole entry, looked up): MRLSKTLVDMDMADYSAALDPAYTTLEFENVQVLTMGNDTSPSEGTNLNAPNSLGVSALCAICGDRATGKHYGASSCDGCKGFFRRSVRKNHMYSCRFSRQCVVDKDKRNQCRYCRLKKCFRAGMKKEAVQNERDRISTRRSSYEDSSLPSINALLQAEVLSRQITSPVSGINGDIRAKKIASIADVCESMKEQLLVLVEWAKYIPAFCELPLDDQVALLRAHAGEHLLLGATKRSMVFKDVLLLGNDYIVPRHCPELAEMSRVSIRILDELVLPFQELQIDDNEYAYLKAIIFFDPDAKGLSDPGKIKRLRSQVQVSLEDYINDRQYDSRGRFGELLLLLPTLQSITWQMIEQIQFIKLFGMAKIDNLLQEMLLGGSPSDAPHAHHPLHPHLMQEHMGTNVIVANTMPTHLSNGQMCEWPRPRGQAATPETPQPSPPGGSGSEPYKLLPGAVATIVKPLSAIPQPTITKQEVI
Ecoli rRNA inh = inhibitors of bacterial rRNA selective over humanized ribosomes | E. coli WT GFP vs humanized-ribosome RFP mutants, fluorescence, 24 h; hits give low values; DMSO median 0, no signal -100 | GFP signal change (wild-type ribosome), % (no concentration beside the values) | 350,000 compounds, 1.6% hits | AID 720706;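 active means significant combined selectivity score with lowered wild-type GFP, culture density cut under 30%, mutant RFP and density less affected; inactive means any of these conditions unmet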; further: one replicate is shown; some compounds called inactive have numbers as strong as hits
B2AR ag = human beta-2 adrenergic receptor agonism by FAP. P07550. AID 504454. 340,000 compounds, 0.43% hits. response, % (test concentration not listed). Am2.2-beta2AR cells, FAP receptor internalization, flow cytometry; reference of the scale not given here;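 active means response above a set limit, near 3 SD of response in nonfluorescent compounds, cut at about 42% in these data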;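 further: stock transfer was 100 nL into about 11 µL; a reference agonist was the positive control; negative values mostly stem from fluorescent compounds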
Target sequence (P07550 whole entry, looked up): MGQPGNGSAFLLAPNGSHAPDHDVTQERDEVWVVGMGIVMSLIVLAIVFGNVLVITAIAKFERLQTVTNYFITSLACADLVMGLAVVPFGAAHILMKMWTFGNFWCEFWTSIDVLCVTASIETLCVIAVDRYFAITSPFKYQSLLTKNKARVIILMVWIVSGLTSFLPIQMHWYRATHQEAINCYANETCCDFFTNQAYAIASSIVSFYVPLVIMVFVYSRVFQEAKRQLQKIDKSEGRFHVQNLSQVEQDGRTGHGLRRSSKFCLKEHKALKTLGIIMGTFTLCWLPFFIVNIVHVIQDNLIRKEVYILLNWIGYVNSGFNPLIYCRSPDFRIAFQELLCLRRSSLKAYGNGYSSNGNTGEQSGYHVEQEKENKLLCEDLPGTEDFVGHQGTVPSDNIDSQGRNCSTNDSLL
FGF22 binding = shifts melting point of recombinant human FGF22. 340,000 compounds, 1.5% hits. recombinant FGF22 thermal shift, SYPRO orange fluorescence; percent of sucrose octasulfate shift, DMSO zero. calls only at 9.99 µM;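 active means melting point raised past a set limit in the mean and every replicate; inconclusive means no clear call; three in four hits are not shown here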
E coli growth = E. coli growth inhibition. OD600 absorbance (concentration not given with the values). 330,000 compounds, 0.21% hits. Escherichia coli growth, OD600, 23 h; hits give low values;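 active means OD600 absorbance below the run mean of sample wells minus 3.6 SD, in any replicate, cut at about 0.56 in these data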;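 further: stock transfer was 300 nL into about 60 µL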
ALR H2O2 inh = blocks human ALR sulfhydryl oxidase activity; P55789; purified ALR, DTT oxidation, H2O2 HRP-luminol luminescence; inhibition, % (test concentration not listed); 290,000 compounds, 3.8% hits; AID 485317;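 active means mean and each replicate at 75% or more; inconclusive means only one of the two met; inactive means neither met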;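 further: stock transfer was 7.5 nL into about 7.5 µL; 0% = neutral wells and 100% = wells with inactivated enzyme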
Target sequence (P55789 whole entry, looked up): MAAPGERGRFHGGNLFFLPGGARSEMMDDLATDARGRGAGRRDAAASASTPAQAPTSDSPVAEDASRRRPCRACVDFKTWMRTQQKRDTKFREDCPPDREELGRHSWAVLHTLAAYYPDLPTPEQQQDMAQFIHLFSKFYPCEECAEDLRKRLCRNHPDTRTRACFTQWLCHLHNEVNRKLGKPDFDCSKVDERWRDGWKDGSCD
UCH37 inh = human UCH37 deubiquitinating enzyme inhibition. Q9Y5K5. purified proteasome/UCH37, Ub-AMC cleavage fluorescence. inhibition, % (test concentration not listed). 330,000 compounds, 0.33% hits. AID 588478;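 active means mean of two replicates above 20%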;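 further: 0% = compound-free wells with enzyme and 100% = wells lacking proteasome; stock transfer was 100 nL into about 20 µL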
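System: Proteasome-associated human UCH37 deubiquitinase; Input: 0.15 nM proteasome in added enzyme buffer; Also added: Ub-AMC substrate from 1 µM stock; Incubation: 30 min compound-proteasome preincubation then 25 min substrate reaction, room temperature; Detection: fluorescence, ex 355 nm, em 460 nm; Read-out: % inhibition of Ub-AMC cleavage fluorescence; Benchmarks: no-proteasome and no-compound wells.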
Ecoli rRNA inh OD600 = further read-out of Ecoli rRNA inh, marked with its call; OD600 change, %; measured here: OD600 growth;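 optical density of the mix in the first replicate; 0 = DMSO median and -100 = no signal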
Ecoli rRNA inh RFP = also measured in Ecoli rRNA inh; calls as there; RFP signal change, %; measured here: RFP humanized mutant strains;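 first replicate; 0 = DMSO median and -100 = no signal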
Numbers without * were called inactive; i = inactive; ? = inconclusive; · = not tested or not shown; & = joins results of further samples.

SMILES	HNF4A DNA FP	Ecoli rRNA inh	Ecoli rRNA inh OD600	Ecoli rRNA inh RFP	B2AR ag	FGF22 binding	E coli growth	ALR H2O2 inh	UCH37 inh
CN(C)NC(=S)Nc1ccc(Cl)cc1	9.2	11	5	2.7	6	i	0.69	22	1.9
COc1cc(C)ccc1OCc1cc(C(=O)N(C)CCCN2CCOCC2)no1	-0.3	0	2	-0.7	2	·	0.67	-9	2.3
Cc1cnc(C(=O)OCC(=O)N(CC(C)C)C2CCS(=O)(=O)C2)cn1 (stereo not drawn)	0.4	·	·	·	2	i	0.66	·	5.3
Cc1onc(-c2ccccc2)c1C(=O)NCc1ccc(Cl)cc1	1.9	3	3	-4.3	-6	i	0.7	-48	4.4
COc1ccc(-c2nc(NC(=O)Cn3cnnn3)sc2C)cc1	1.8	-26	-26	-0.6	1	i	0.66	·	-0.5
COc1ccc(Cc2nc3ccc(C(=O)NCC4COCCO4)cc3o2)cc1OC (stereo not drawn)	-3.9	3	3	-0.8	2	i	0.68	3	0.8
Cc1cc2nnc(SCC(=O)Nc3cccc(S(=O)(=O)N4CCOCC4)c3)n2c2ccccc12	0.6	·	·	·	8	·	0.71	-7	0.2
O=C(CCC1CCCN(C(=O)c2cc3ccccc3o2)C1)NCc1ccc(F)c(F)c1 (stereo not drawn)	-2.6	-21	-20	-4.9	-7	i	·	·	·
O=C1CC(Cc2ccccc2)C(=O)N1c1ncccn1 (stereo not drawn)	1.6	-5	-6	-12	4	i	0.7	2	3.9
O=C(Nc1ncn[nH]1)c1cccc(F)c1	-0.3	7	17	6.3	-7	i	0.7	0	-0.1
N=C1C(c2nc3ccccc3s2)=C(O)CN1NC(=O)c1ccc([N+](=O)[O-])cc1	-1.6	9	4	0.9	3	i	0.66	·	17
Cc1noc(C)c1NC(=O)N(C)C[C@H]1Oc2ccc(NC(=O)Nc3ccccc3)cc2C(=O)N([C@H](C)CO)C[C@@H]1C	0.6	2&4	2&10	-1.1&-1.5	-2	i	0.73	·	1.9
O=C(Nc1cccc(F)c1)C1CCCN(C(=O)c2ccc(Cl)cc2)C1 (stereo not drawn)	-0.4	-14	-10	-0.1	-7	i	0.71	11	0.4
CCOC(=O)C1=CC[C@]2(C)c3c(c4ccccc4n3C)C(=O)C1N2C	9.5	6	7	2.2	-5	i	0.81	-23	2.7
CCOC(=O)[C@]12CCC=C1N(Cc1ccco1)C(=O)[C@H](CC(=O)NCC13CC4CC(CC(C4)C1)C3)C2	2.1	-16	-10	2.4	·	i	·	·	·
O=S(=O)(NCCNc1nccc(C(F)(F)F)n1)c1ccccc1	-0.9	16	9	1.3	-2	i	0.67	-4	1.0
O=C1C=C(Nc2cccc(O)c2)CC(c2ccco2)C1 (stereo not drawn)	-0.7	-1	-1	4.5	-4	·	0.71	5	4.1
O=C1N(Cc2ccc(F)cc2Cl)c2ccccc2C12OCCCO2	-2.3	·	·	·	7	·	0.63	-3	0.8
CCc1nnc(NS(=O)(=O)c2ccc(NC(=S)Nc3ccc(F)cc3)cc2)s1	-0.8	1	-1	-9.1	3	i	0.65	6	1.3
Cc1ccc2c(c1)NC(=O)[C@@]1(C)[C@@H](c3ccccc3)[C@H]3COc4ccc(Cl)cc4[C@@H]3N1C2=O	2.4	-6	-9	-10	5	i	·	1	0.9
CC(C)N1CCC(=O)NC1=O	-3.7	9	11	-0.3	3	i	0.67	·	1.0
Cc1cc(C)c2c(CC(=O)NNC(=O)c3ccccc3)coc2c1	-0.1	-19	-16	2.2	-2	i	0.7	2	1.9
COCCCNC(=O)c1ccc([N+](=O)[O-])cc1	1.4	9	7	0.3	-1	·	0.66	-18	0.8
CC(=O)Nc1ccc(NC(=O)COC(=O)Cc2cccs2)cc1	4.3	·	·	·	8	·	0.76	·	0.6
COc1cccc2nc3cc(C)c(C)cc3nc12	-5.9	-13	-4	-2.3	9	i	·	14	·

3 entries from above, in CSV form:
Molecule,HNF4A DNA FP,Ecoli rRNA inh,Ecoli rRNA inh OD600,Ecoli rRNA inh RFP,B2AR ag,FGF22 binding,E coli growth,ALR H2O2 inh,UCH37 inh
CN(C)NC(=S)Nc1ccc(Cl)cc1,9.2,11,5,2.7,6,i,0.69,22,1.9
COc1cc(C)ccc1OCc1cc(C(=O)N(C)CCCN2CCOCC2)no1,-0.3,0,2,-0.7,2,·,0.67,-9,2.3
Cc1cnc(C(=O)OCC(=O)N(CC(C)C)C2CCS(=O)(=O)C2)cn1 (stereo not drawn),0.4,·,·,·,2,i,0.66,·,5.3

Further structures follow:
SMILES	HNF4A DNA FP	Ecoli rRNA inh	Ecoli rRNA inh OD600	Ecoli rRNA inh RFP	B2AR ag	FGF22 binding	E coli growth	ALR H2O2 inh	UCH37 inh
CCOc1cc(/C=C2\NC(=S)N(C)C2=O)ccc1OCc1ccc(C(=O)O)cc1	-0.6	-6	-9	-1.1	13	i	0.64	89*	2.2
CC(C)Cn1c(N)c(C(=O)COC(=O)c2ccc(F)cc2)c(=O)n(C)c1=O	-2.5	16	14	0.5	-5	i	0.71	-10	2.9
COc1ccc(OC)c(NC(=O)C2CC(C)=C(C)CC2C(=O)O)c1 (stereo not drawn)	-0.1	·	·	·	-7	·	0.69	-39	0.7
CCOC(=O)C1CCCN(S(=O)(=O)c2ccc3c(c2)N(C)C(=O)CC(=O)N3C)C1 (stereo not drawn)	-1.6	3	7	3.2	7	i	0.7	-11	4.0
O=C(NCc1ccccn1)c1ccc(NS(=O)(=O)c2ccccc2)cc1	-0.4	9	7	-1.2	-5	i	0.7	-6	5.7
O=C(NCCCCc1ccccc1)c1cccc(NC(=O)c2ccccc2)c1	0.3	-5	-25	-6.3	-6	i	·	·	·
CCCc1nnc(NC(=O)CCC(=O)Nc2ccc(Cl)cc2)s1	-4.3	5	4	-1.7	0	i	0.72	-5	1.5
COc1cccc(-n2c(Cn3nc(C(F)(F)F)cc3C)n[nH]c2=S)c1	-0.1	15	1	4.5	0	i	0.69	7	1.0
COC(=O)c1c(C)oc2cc(Br)c(OCC(=O)C(C)(C)C)cc12	0.5	·	·	·	-2	·	0.68	-14	0.5
Cc1ccc(N2CN(Cc3ccco3)CNC2=S)c(C)c1	-1.3	-14	-2	2.6	-6	i	0.7	3	2.0
Cc1csc(NC(=O)CSc2nc(=O)n(CCN(C)C)c3c2CCCC3)n1	1.5	7	0	2.5	-16	·	0.65	98*	3.7
Nc1cccc2c1C(=O)N(Cc1cccc(Cl)c1)C2=O	-14	-39	-53	-6.8	4	i	0.68	-2	-95
Cc1ccc(S(=O)(=O)N(Cc2ccc(Cl)cc2)c2ccccc2C(=O)O)cc1	-6.9	-13	-16	-2.9	-5	i	0.6	·	3.0
CCc1cc(=O)oc2c3c(cc(OCC(=O)NCCC(=O)O)c12)OC(C)(C)CC3	2.9	4	9	0.1	-11	i	0.65	-1	i
COc1ccc(-n2c(SCC(=O)Nc3nccs3)nnc2-c2ccccc2)cc1	0.1	·	·	·	-4	·	0.7	-22	3.1
CCOc1ccc2nc(N(CCCN(C)C)C(=O)c3ccc(S(=O)(=O)N4CCc5ccccc5C4)cc3)sc2c1	-0.6	-22	18	4.7	30	i	0.7	-21	5.2
CCSc1nc(-c2ccccc2)c(-c2ccccc2)n1CC(O)CO (stereo not drawn)	1.9	-15	-25	-1.6	-5	i	0.7	9	-11
c1ccc(C[n+]2cccc3c4ccccc4ccc32)cc1	-1.9	·	·	·	-1	·	0.69	1	-147
O=C(CSc1nnnn1-c1ccc(C(=O)O)cc1)NC1CC1	0.3	8	15	1.7	3	i	0.67	-5	0.8
O=C(CN1C(=O)NC(c2ccccc2)(c2ccccc2)C1=O)NCc1ccco1	0.5	-53	-78	-15	-2	i	0.7	-13	0.9
COc1ccc(OC)c(CNC(=O)C2CCN(S(=O)(=O)N3CCCC3)CC2)c1	-2.0	-4	1	-1.4	0	·	0.71	0	-2.0
COc1cccc(Cn2c(NCc3cccnc3)nc3c2c(=O)n(C)c(=O)n3C)c1	-1.0	·	·	·	-3	·	0.72	·	0.2
O=C(COC(=O)Cc1ccc(Cl)c(Cl)c1)Nc1ccc2[nH]c(=O)[nH]c2c1	4.4	3	14	0.4	7	i	0.7	-23	0.6
CCN1CCC(=NNC(=O)c2ccco2)CC1	-2.1	·	·	·	8	·	0.72	-1	4.2
CCOC(=O)C(C(=O)Nc1ccccn1)C1CCCCC1 (stereo not drawn)	-2.1	·	·	·	7	·	0.72	·	-11
Additional records:
SMILES	HNF4A DNA FP	Ecoli rRNA inh	Ecoli rRNA inh OD600	Ecoli rRNA inh RFP	B2AR ag	FGF22 binding	E coli growth	ALR H2O2 inh	UCH37 inh
C/C=C(\C)C(=O)OC(C)(C)[C@@H]1Cc2cc3ccc(=O)oc3cc2O1	-5.7	-32	-55	-20	-12	i	0.77	-10	4.8
CCC(=O)N1CCc2cc(S(=O)(=O)CCC(=O)Nc3ccc(C)c(F)c3)ccc21	0.4	·	·	·	-25	·	0.71	?	2.9
O=C(NCCCc1ccccc1)C(=O)c1c[nH]c2ccccc12	-0.3	0	-1	-2.7	-2	i	0.69	-4	4.2
CC(C)CCc1noc(CN2CCC(C(=O)N3CCOCC3)CC2)n1	4.2	14	14	2.9	-9	i	0.7	·	1.0
COc1ccc(Cc2nc(-c3cccnc3)no2)cc1OC	0.5	8	-3	-3.6	-1	i	0.68	-12	4.1
CC1=C(C)C(=O)N(c2ccc(C(=O)O)cc2)C1=O	-1.1	·	·	·	-1	·	0.73	2	-3.1
CN(/N=C/c1ccc2c(c1)OCO2)c1ccccc1	2.9	·	·	·	0	·	·	85*	·
CC(=O)NC(c1ccc(F)c(F)c1)c1nc(-c2ccc3c(c2)OCO3)cs1 (stereo not drawn)	2.1	3	-5	0.3	·	i	·	·	·
COc1ccc(C(CC(=O)c2ccccc2)S(=O)(=O)c2ccccc2)cc1 (stereo not drawn)	5.3	·	·	·	-1	·	0.71	0	2.7
COc1ccc(NC(=S)N2CCNC(=O)C2CC(=O)Nc2cccc(Cl)c2C)cc1 (stereo not drawn)	-1.9	9	2	0.9	-6	i	0.71	-14	-1.8
O=C(NCCC(=O)N(CCc1ccccc1)Cc1ccccc1)c1ccc(Br)cc1	1.7	-39	-55	7.6	-7	i	0.68	-4	1.8
CC(=O)c1cccc(NC(=S)NC(=O)c2ccc(C)cc2Cl)c1	4.0	-32	-26	-3.4	-2	i	·	16	·
O=C(Nc1ccccc1F)N1CCCC1c1cccnc1 (stereo not drawn)	-0.8	10	13	2.0	1	i	0.6	-1	2.8
CC12CCC(=O)N1C(C(=O)Nc1nc3ccc(F)cc3s1)CS2 (stereo not drawn)	-6.6	1	6	-1.3	-2	i	0.64	-1	1.8
CN(c1nc(-c2ccccc2)cs1)C1CCS(=O)(=O)C1 (stereo not drawn)	6.2	-2	-1	11	-12	i	0.67	0	4.6
CCS(=O)(=O)c1nc2ccccc2n1Cc1ccccn1	2.9	5	-2	-9.3	1	i	0.71	-4	1.0
O=C1Nc2ccccc2C(=O)N2C[C@@H](O)C[C@H]12	2.6	11	8	1.9	-8	i	0.69	·	0.3
O=C(Nc1ccc2cccnc2c1)c1ccc(Br)cc1	-0.3	10	6	0.7	4	i	0.69	-7	0.6

Limited to Ecoli rRNA inh, for 4 of the compounds above:
smiles | Ecoli rRNA inh
CC(C)CCc1noc(CN2CCC(C(=O)N3CCOCC3)CC2)n1 | 14
O=C(Nc1ccccc1F)N1CCCC1c1cccnc1 (stereo not drawn) | 10
C/C=C(\C)C(=O)OC(C)(C)[C@@H]1Cc2cc3ccc(=O)oc3cc2O1 | -32
O=C(Nc1ccc2cccnc2c1)c1ccc(Br)cc1 | 10

Only part of the results is shown, so the mix of outcomes need not match the whole.
